Source: PubChem BioAssay (National Center for Advancing Translational Sciences (NCATS))
CtBP-E1A blk: CtBP/E1A binding inhibition. AlphaScreen GST-E1A/His-CtBP binding, 1536-well; hits give low values; control for the full effect not named in the record. activity change, % (concentration not given with the values). 0.49% of 340,000 active; in the data active means activity change below about -65%; inconclusive means about -30% to -65%; inactive means above about -30%; note: % is set by controls: 0 for no effect and ±100 for the full control effect
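In 5 uL wells, 23 nL compound meets equimolar GST-E1A and His-CtBP (5X stock 125 nM each) for 2 h, 37 °C. Beads (5X, 50 ug/mL) then 1 h, 37 °C, dark.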
TRPML1 agonist: human mucolipin-1 channel agonism; 0.12% of 410,000 active; activation, % (no concentration beside the values); Q9GZU1; TRPML1-expressing cells, Ca2+ dye fluorescence, FDSS; host cell line not named in the record; reference of the full effect not given here; AID 624414; in the data active = activation above about 50%; inconclusive = about 30% to 50%; inactive = below about 30%; note: 0% is about no effect; the text of the record puts the active cut at 80%
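Tet-induced TRPML1-DL cells, 1,500 per well, cultured overnight, were loaded with a no-wash Ca2+ dye for 45–90 min. Calcium fluorescence was recorded on the FDSS for 110 s after compound addition, before the EC80 agonist (4 uM 54-4) was added.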
TRPV1 potentiator: potentiators of human vanilloid receptor 1 (TRPV1) | 0.02% of 320,000 active | Q8NER1 | TRPV1-expressing cells, Fluo-8 calcium influx, capsaicin EC20 potentiation; host cell line not named in the record; control for the full effect not named in the record | potentiation, % at 8.33 µM; active means potentiation above 80%; inconclusive means 30% to 80%; inactive means below 30%; note: 0% is about no effect
Target sequence (Q8NER1 whole entry, looked up): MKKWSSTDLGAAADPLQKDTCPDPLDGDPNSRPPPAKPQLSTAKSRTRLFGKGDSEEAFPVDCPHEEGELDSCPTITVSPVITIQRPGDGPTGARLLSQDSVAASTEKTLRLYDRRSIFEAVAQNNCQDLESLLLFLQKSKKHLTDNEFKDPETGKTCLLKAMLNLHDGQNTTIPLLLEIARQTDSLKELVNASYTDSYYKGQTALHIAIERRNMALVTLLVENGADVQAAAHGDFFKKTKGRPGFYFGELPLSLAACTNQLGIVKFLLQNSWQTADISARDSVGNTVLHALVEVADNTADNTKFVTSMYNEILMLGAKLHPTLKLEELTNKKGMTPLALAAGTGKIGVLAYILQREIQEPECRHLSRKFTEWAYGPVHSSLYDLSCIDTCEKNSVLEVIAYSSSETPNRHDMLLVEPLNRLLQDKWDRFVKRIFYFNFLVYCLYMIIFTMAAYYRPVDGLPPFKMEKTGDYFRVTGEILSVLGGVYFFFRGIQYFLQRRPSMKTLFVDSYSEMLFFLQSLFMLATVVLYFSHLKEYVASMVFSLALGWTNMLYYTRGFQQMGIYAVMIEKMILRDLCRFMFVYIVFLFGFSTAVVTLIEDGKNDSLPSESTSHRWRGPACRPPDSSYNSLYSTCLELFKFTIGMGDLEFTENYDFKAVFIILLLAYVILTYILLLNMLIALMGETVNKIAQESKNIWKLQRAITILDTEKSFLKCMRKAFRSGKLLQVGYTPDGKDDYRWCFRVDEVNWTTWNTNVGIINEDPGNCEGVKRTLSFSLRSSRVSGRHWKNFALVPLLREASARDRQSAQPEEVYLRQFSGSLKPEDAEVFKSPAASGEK
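Fluo-8 calcium influx in TRPV1-expressing cells, kinetic read (ex 480/em 520 nm). Compound added and read 3 min for agonist activity, followed by capsaicin at EC20 final and 2 min further read for enhancement.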
D2 potentiator: human D2 receptor positive allosteric modulation | P14416 | DiscoveRx D2 beta-arrestin cells, luminescence, 90 min; 100% = 57 uM dopamine signal | potentiation, % (concentration not given with the values) | 0.23% of 360,000 active | AID 624464; active = potentiation of 50% or more; inconclusive = 30% to 50%; inactive = 30% or less;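 note: compound concentration not given in the record; tested on top of an EC20 dose of dopamine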
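D2 cells co-treated with compound plus 50 nM dopamine (EC20) for 90 min at 37 deg C to detect potentiation. Beta-arrestin recruitment was read as enzyme-fragment luminescence after 1 h at ambient temperature. Full response was set by 57 uM dopamine.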
Six1-Eya2 blk: blocks human Six1 binding to Eya2. activity change, % (concentration not given with the values). AlphaScreen GST-Six1/His-Eya2 binding, biochemical; hits give low values; control for the full effect not named in the record. 0.56% of 360,000 active. Q15475+O00167; in the data active = activity change below about -65%; inconclusive = about -30% to -65%; inactive = above about -30%; note: % is set by controls: 0 for no effect and ±100 for the full control effect
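Compounds are tested against tagged Six1 and Eya2 proteins bridged by glutathione donor and nickel acceptor beads; after a one-hour incubation at 37 °C without light, AlphaScreen emission is recorded.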
TRPML1 inh: blocks the human TRPML1 channel. AID 624415. activity change, negative = inhibition, % (concentration not given with the values). TRPML1-inducible cells, Ca2+ dye fluorescence, FDSS; hits give low values; inhibition of EC80 agonist-evoked calcium signal. 0.02% of 390,000 active; in the data active means activity change below about -50%; inconclusive means about -30% to -50%; inactive means above about -30%;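 note: stimulus is agonist 54-4 at its EC80 concentration; % is set by controls: 0 for no effect and ±100 for the full control effect; compound concentration not given in the record; the text of the record puts the active cut at -80%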
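Tet-induced TRPML1-DL cells loaded with Ca8 no-wash calcium dye were read kinetically on FDSS. Compound addition was followed by EC80 agonist 54-4 (4 uM final); inhibition was read over 110 s.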
An asterisk follows results filed as active; ? = inconclusive; / = no result given.

item | SMILES | CtBP-E1A blk | TRPML1 agonist | TRPV1 potentiator | D2 potentiator | Six1-Eya2 blk | TRPML1 inh
1 | Cc1nn(-c2ccc(Cl)cc2)c2[nH]c(CCl)cc(=O)c12 | 3 | -0.3 | -2 | -2 | -4 | -3
2 | NC(=O)[C@@H]1CCOc2c(F)cc([N+](=O)[O-])cc2C(=O)N[C@@H](CO)C(=O)NCC(=O)N1 | 3 | 0.2 | 0 | -2 | 7 | -18
3 | COc1cc(OC)cc(C(=O)OCC(=O)Nc2ccc(N3CCCCC3)cc2)c1 | 0 | -0.6 | 5 | 5 | -2 | 2
4 | COC(=O)CSc1nc2ccccc2c(=O)n1Cc1ccccc1 | 7 | 0.9 | -4 | 3 | 1 | 10
5 | Cc1ccc([C@@H]2CC=C(C(=O)O)[C@H](c3cccc(F)c3)N2S(=O)(=O)c2ccccc2C)cc1 | 3 | -0.2 | / | / | 1 | -9
6 | COc1cc2cnc(-c3ccccc3)c(-c3cc(OC)c(OC)c(OC)c3)c2cc1OC | -11 | 0.1 | -12 | -5 | -11 | 46
7 | COc1ccc(-c2csc3nc(C)nc(N4CCN(c5ccc(C(C)=O)cc5)CC4)c23)cc1OC | -4 | -0.4 | -33 | 4 | -10 | -7
8 | C[C@@H]1CN([C@H](C)CO)C(=O)c2cccc(NC(=O)NC3CCCCC3)c2O[C@@H]1CN(C)C(=O)Nc1ccc(C(F)(F)F)cc1 | -1 | -0.2 | / | -2 | 1 | 7
9 | Cc1cc(NC(=O)COC(=O)C(Nc2ccc(C(F)(F)F)cc2Cl)C(C)C)no1 (stereo not given) | 5 | 0.0 | -8 | ? | 3 | -11
10 | S=C(NCCN1CCOCC1)N/N=C/c1c2ccccc2cc2ccccc12 | 0 | 10 | 5 | -25 | -4 | -8
11 | Cc1ccccc1C(=O)OC(C)C(=O)NCc1ccc2c(c1)OCO2 (stereo not given) | -3 | -0.4 | -12 | -4 | 3 | -5
12 | COc1cc(C2/C(=C(\O)c3ccc4c(c3)CC(C)O4)C(=O)C(=O)N2CCCn2ccnc2)ccc1O (stereo not given) | -4 | -0.7 | -9 | ? | 1 | 13
13 | COc1ccc(CCNC(=O)CC2Nc3ccccc3NC2=O)cc1OC (stereo not given) | -3 | -0.9 | -11 | 2 | -9 | 6
14 | CN(C)CCN1C(=O)c2oc3ccccc3c(=O)c2C1c1ccc(F)cc1 (stereo not given) | 4 | -0.7 | -12 | -8 | 0 | -1
15 | CNC(=O)COc1ncnc2sc(C)c(C)c12 | 7 | -0.5 | 3 | -6 | 5 | 10
16 | O=[N+]([O-])c1cc([N+](=O)[O-])c(Oc2cc(F)cc(F)c2F)cc1NN1CCCCC1 | -10 | -0.8 | 0 | -4 | -18 | -1

Some of the entries so far, field by field:
(14) CN(C)CCN1C(=O)c2oc3ccccc3c(=O)c2C1c1ccc(F)cc1 (stereo not given)
  CtBP-E1A blk: 4	TRPML1 agonist: -0.7	TRPV1 potentiator: -12	D2 potentiator: -8	Six1-Eya2 blk: 0	TRPML1 inh: -1

(12) COc1cc(C2/C(=C(\O)c3ccc4c(c3)CC(C)O4)C(=O)C(=O)N2CCCn2ccnc2)ccc1O (stereo not given)
  CtBP-E1A blk: -4	TRPML1 agonist: -0.7	TRPV1 potentiator: -9	D2 potentiator: ?	Six1-Eya2 blk: 1	TRPML1 inh: 13

(9) Cc1cc(NC(=O)COC(=O)C(Nc2ccc(C(F)(F)F)cc2Cl)C(C)C)no1 (stereo not given)
  CtBP-E1A blk: 5	TRPML1 agonist: 0.0	TRPV1 potentiator: -8	D2 potentiator: ?	Six1-Eya2 blk: 3	TRPML1 inh: -11

(13) COc1ccc(CCNC(=O)CC2Nc3ccccc3NC2=O)cc1OC (stereo not given)
  CtBP-E1A blk: -3	TRPML1 agonist: -0.9	TRPV1 potentiator: -11	D2 potentiator: 2	Six1-Eya2 blk: -9	TRPML1 inh: 6

Remaining list, next part
item | SMILES | CtBP-E1A blk | TRPML1 agonist | TRPV1 potentiator | D2 potentiator | Six1-Eya2 blk | TRPML1 inh
17 | O=C(c1ccc(Cl)c(S(=O)(=O)N2CCc3ccccc3C2)c1)N1CCN(c2ccccc2)CC1 | -14 | 0.0 | 4 | -6 | -10 | 26
18 | Cc1ccc(NC(=O)Nn2cnnc2)cc1Cl | 10 | -0.8 | 21 | -4 | 2 | -1
19 | Cc1ccc(OCC(=O)Nc2ccc(Cl)cc2)c(-n2nc3ccccc3n2)c1 | 8 | 0.0 | -6 | -1 | 6 | -9
20 | CCn1c(SCc2nc3ccccc3s2)nnc1-c1cccs1 | -12 | -0.4 | 17 | -4 | -1 | -4
21 | O=C(Nc1ncc(Cc2ccccc2Cl)s1)C1CCCO1 (stereo not given) | -7 | 1.1 | -20 | -4 | -1 | 0
22 | CC(OC(=O)c1ccc(Cl)c(S(N)(=O)=O)c1)C(=O)NCc1ccc2c(c1)OCO2 (stereo not given) | -19 | 0.5 | 3 | 4 | 0 | -5
23 | Cc1ccc(SCc2cc(=O)[nH]c(Nc3nc(C)c4cccc(C)c4n3)n2)cc1 | -11 | -0.2 | -9 | -9 | -1 | 1
24 | O=C(CNC(=O)c1ccccc1)OCC(=O)N1N=C(c2ccc(Cl)cc2)CC1c1ccco1 (stereo not given) | 0 | 0.6 | 18 | -3 | 2 | 20
25 | COc1ccc(CCNC(=O)COc2coc(CN3c4ccccc4CC3C)cc2=O)cc1OC (stereo not given) | -8 | 1.7 | -3 | -12 | -6 | 3
26 | CC(C)Oc1ccc(S(=O)(=O)N2CCOCC2)cc1NC(=O)c1ccc(N2CCCC2=O)cc1 | -3 | -0.1 | 14 | 6 | -4 | 12
27 | CS(=O)(=O)c1ccc(Cl)c(NC(=O)CSC(=S)N2CCCC2)c1 | 11 | 0.2 | / | 1 | -1 | 21
28 | CN(CCCC(=O)Nc1nccs1)S(=O)(=O)c1ccc(Cl)cc1 | 1 | -1.0 | 4 | -6 | -1 | -3
29 | CC(C)(C)C(=O)CC1(O)C(=O)N(Cc2ccccc2)c2ccccc21 (stereo not given) | 5 | -0.2 | 2 | -8 | 0 | 2
30 | CC(/C=C/c1ccco1)=N\NC(=O)CNc1ccc2ccccc2c1 | / | 1.2 | 5 | -2 | -5 | -1
31 | CCc1ccc(C(=O)NNC(=O)c2cc(S(=O)(=O)N(C)C)ccc2N2CCCC2)cc1 | 3 | 0.3 | 5 | -7 | -2 | 9
32 | NC(=O)c1ncn([C@@H]2O[C@H](CNCc3ccc(-c4cc(C(F)(F)F)ccc4Cl)o3)[C@@H](O)[C@H]2O)n1 | -2 | -0.5 | / | / | 0 | 29
33 | S=c1[nH]nc(-c2c[nH]c3ccccc23)o1 | 3 | -0.2 | 4 | -1 | -3 | -4
34 | CCCCc1ccc(NC(=O)Cn2c(=O)c(N3CCCCC3)c(N)n(C)c2=O)cc1 | 5 | 0.9 | / | -7 | -9 | 5
35 | O=C(NCC(F)(F)F)c1[nH]c(C(F)(F)F)nc1-c1ccccc1 | -3 | 1.4 | / | -1 | -4 | 2
36 | CC(=O)N(c1ccc(C)cc1)c1nc(C)cc(C)c1C#N | -15 | 1.4 | 1 | -1 | 1 | -16
37 | COc1ccc(-n2c(NN)nc3sc4c(c3c2=O)CCCC4)cc1 | -1 | 0.5 | 7 | 0 | 2 | 5
38 | CC1=CC(C)(C)N(C(=O)CSc2nnc(-c3ccc(C)cc3)o2)c2ccc(C)cc21 | -12 | 1.4 | 1 | 4 | 9 | 83
39 | CC(=O)Nc1cccc(C(=O)NC(C)c2ccc(S(N)(=O)=O)cc2)c1 (stereo not given) | 11 | 0.0 | -16 | -8 | 8 | -11
40 | Cc1cccc2c(C(=O)N3CCCCC3)cc(-c3ccccc3)nc12 | -17 | -0.4 | 20 | -8 | -4 | -7
41 | Cc1cc(O)c(C(C)C)cc1NC(=O)Cn1nc(C)c2ccccc2c1=O | -5 | 0.7 | 10 | -13 | 0 | 11
42 | Cc1ccc(NC(=O)NC(=O)N(C(C)C)S(C)(=O)=O)nc1 | -17 | 0.6 | 3 | -3 | 7 | -3
43 | C=CCn1c(Cc2c[nH]c3ccccc23)nnc1SCC(=O)NCc1ccccc1 | -8 | -0.4 | ? | -23 | -2 | 0
44 | O=S1(=O)CC(N2CCCC2)CN1Cc1ccccc1 (stereo not given) | 7 | 0.0 | / | -3 | 1 | /
45 | CCn1c(/C=N/Nc2ccc(C(=O)O)cc2)nc2ccccc21 | -3 | 3.6 | 1 | 3 | -3 | 7
46 | COc1ccccc1CN(Cc1nc2ccccc2c(=O)[nH]1)C(=O)Nc1ccccc1 | 2 | -0.6 | -5 | -10 | -6 | 28
47 | Nc1nc(CN2CCN(Cc3ccccc3)CC2)nc(Nc2ccccc2)n1 | 5 | -0.5 | 6 | -21 | -14 | -7
48 | O=C(NCC1CCCO1)c1cc(-c2ccccc2F)no1 (stereo not given) | / | 0.5 | -6 | -6 | 3 | 3
49 | O=C1NC(=O)C(Cc2cccc(Oc3ccccc3)c2)S1 (stereo not given) | 8 | 1.4 | 14 | -4 | -1 | 3
50 | CCN1CCN(C(c2cccs2)C(C)NC(=S)NC2CCCCC2)CC1 (stereo not given) | 13 | 0.2 | -2 | -4 | -1 | 11
51 | Cc1ccc(C(=O)CSc2nnc(-c3cccs3)n2C)o1 | 2 | -0.4 | -4 | -3 | -3 | 6
52 | COc1ccc(C(=O)N(C)[C@H]2C[C@H]3c4[nH]c5ccccc5c4CCN3C(=O)[C@H]2CO)cc1 | 1 | -0.6 | / | 3 | 0 | 2
53 | O=C(NCCCn1ccnc1)c1cc(-c2cccnc2)nc2ccc(Br)cc12 | -14 | 0.1 | -16 | -8 | -10 | -15
54 | O=C(NC(=S)NC1CCCCC1)c1ccccc1[N+](=O)[O-] | -13 | 2.3 | -13 | -8 | -15 | 24
55 | COc1cccc(NC(=O)C2(C)CCN2C(C)C)c1OC (stereo not given) | 29 | -0.7 | / | -3 | 21 | /
56 | COc1cc(CC(=O)Nc2ccc(S(=O)(=O)N(C)C)cc2)cc(OC)c1OC | -18 | -0.5 | 7 | -6 | -10 | -8
57 | COc1ccccc1NC(=O)CCN1C(=O)c2ccccc2S1(=O)=O | 3 | 0.4 | -1 | -2 | 5 | -7
58 | COc1cc(-c2nnc(COC(=O)c3cc(C)no3)o2)cc(OC)c1OC | -1 | -0.4 | -20 | -28 | 0 | 35
59 | COc1ccc(S(=O)(=O)NCc2ccc(C(=O)NCCN(C)Cc3ccccc3)cc2)cc1 | 0 | -0.4 | / | -8 | -3 | -19
60 | Cc1cc(C(=O)N/N=C/c2cc(Br)ccc2OC(=O)c2ccccc2)n[nH]1 | -67* | 0.9 | -2 | 2 | ? | -3
61 | O=C(NCCCN1CCCC1=O)c1ccc2c(c1)OCO2 | -13 | -0.1 | -3 | -8 | -13 | 6
62 | Cc1sc(NC(=O)c2ccccc2)c(C(=O)c2ccccc2)c1C | ? | 0.4 | 2 | -22 | ? | -1
63 | CNc1ccccc1C(C)(C)c1cc(C)[nH]n1 | / | 0.9 | -1 | -11 | -7 | 11
64 | COc1ccc(-n2nc(C(=O)NCC(=O)N3CCCC3)c3ccccc3c2=O)cc1 | 13 | 0.2 | 1 | 7 | 1 | 14
65 | COc1ccc(OCC(=O)Nc2ccccc2C(=O)Nc2ccc(C(=O)O)cc2)cc1 | 2 | 0.6 | 4 | -5 | 21 | -4
66 | COc1ccccc1NC(=O)Nc1ccc(F)c(F)c1 | 6 | -0.3 | -19 | -10 | 9 | -10
